# Source: PubChem BioAssay (several laboratories)
# Vif A3G – HIV-1 Vif–A3G interaction blockers – biochemical, TR-FRET, GST-Vif 1-94, biotin-A3G peptide, dose response retest, primary screen (AID 1117319). TR-FRET GST-Vif / biotin-A3G peptide binding; higher % means a stronger effect; test concentration not given here; strong numbers were not always called active. one-dose inhibition, %; IC50 in µM for titrated hits. 260,000 compounds, 0.57% hits;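 active = above the screen mean plus three standard deviations and confirmed in dose response; inconclusive = results disagree or hit not tested in dose response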;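 also: Vif residues 1-94 fused to GST binding biotinylated APOBEC3G peptide 110-148; 0% = full assay without inhibitor and 100% = GST in place of GST-Vif; retest series ran down from 100 µM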
# HNF4A DNA FP – change in binding of human HNF4 alpha to DNA | HNF4a-FITC DNA binding, fluorescence polarization, 1 h | 360,000 compounds, 0.3% hits | activity change, % at 10 µM; in the data active = activity change above about 30%, passing the limit was not always enough;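 also: controls were the assay level and a saturating level of protein; the project sought stronger binding though the title names inhibitors; some compounds called inactive have numbers as strong as hits; positive values seem to mean higher polarization but the record does not say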
# Target sequence (P41235 whole entry, looked up): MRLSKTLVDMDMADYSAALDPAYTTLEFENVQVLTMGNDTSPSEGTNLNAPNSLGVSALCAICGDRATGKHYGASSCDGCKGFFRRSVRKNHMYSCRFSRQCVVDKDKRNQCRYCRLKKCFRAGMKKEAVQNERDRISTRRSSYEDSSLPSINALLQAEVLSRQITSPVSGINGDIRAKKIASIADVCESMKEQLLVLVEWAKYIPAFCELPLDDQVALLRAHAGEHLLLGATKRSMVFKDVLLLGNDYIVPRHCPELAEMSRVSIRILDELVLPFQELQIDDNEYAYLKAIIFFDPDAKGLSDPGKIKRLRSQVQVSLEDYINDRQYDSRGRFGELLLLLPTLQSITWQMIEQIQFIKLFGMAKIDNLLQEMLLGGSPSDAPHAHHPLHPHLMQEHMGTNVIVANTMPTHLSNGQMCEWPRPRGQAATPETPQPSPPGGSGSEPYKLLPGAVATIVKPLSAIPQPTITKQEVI
# FGF22 binding – binders of recombinant human FGF22 by thermal shift. Q9HCT0. SYPRO orange fluorescence; percent of sucrose octasulfate shift, DMSO zero. calls only at 9.99 µM. 340,000 compounds, 1.5% hits. AID 651658;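 active = melting point raised past a set limit in the mean and every replicate; inconclusive = no clear call; three in four hits are not shown here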
# Target sequence (Q9HCT0 whole entry, looked up): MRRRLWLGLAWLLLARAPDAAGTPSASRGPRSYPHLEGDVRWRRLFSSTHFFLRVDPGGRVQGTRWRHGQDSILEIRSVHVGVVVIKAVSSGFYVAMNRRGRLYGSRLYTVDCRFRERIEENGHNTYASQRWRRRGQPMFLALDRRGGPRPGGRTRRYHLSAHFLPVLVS
# MLL AF4-AF9 inh – MLL-AF4/AF9 protein interaction inhibition. AlphaScreen, biotin-AF4 peptide binding to FLAG-AF9. inhibition, % at 10 µM. 350,000 compounds, 0.47% hits;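 active = every replicate reaching a set inhibition limit, whatever the replicate mean, cut at about 25% in these data; inconclusive = mean inhibition reaches that limit but some replicates miss it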;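 also: 0% = plate neutral control median and 100% = total signal loss; the record names both 10 and 1 µM as test concentration; the first replicate is given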
# Ecoli growth – E. coli growth inhibition; Escherichia coli growth, OD600, 23 h; hits give low values; OD600 absorbance (no concentration beside the values); 330,000 compounds, 0.21% hits;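 active = OD600 absorbance below the run mean of sample wells minus 3.6 SD, in any replicate, cut at about 0.56 in these data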;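 also: stock transfer was 300 nL into about 60 µL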
# UCH37 DUB inh – inhibitors of human deubiquitinating enzyme UCH37. purified proteasome/UCH37, Ub-AMC cleavage fluorescence. inhibition, % (no concentration beside the values). 330,000 compounds, 0.33% hits. AID 588478;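 active = mean of two replicates above 20%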;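 also: 0% = compound-free wells with enzyme and 100% = wells lacking proteasome; stock transfer was 100 nL into about 20 µL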
# Target sequence (Q9Y5K5 whole entry, looked up): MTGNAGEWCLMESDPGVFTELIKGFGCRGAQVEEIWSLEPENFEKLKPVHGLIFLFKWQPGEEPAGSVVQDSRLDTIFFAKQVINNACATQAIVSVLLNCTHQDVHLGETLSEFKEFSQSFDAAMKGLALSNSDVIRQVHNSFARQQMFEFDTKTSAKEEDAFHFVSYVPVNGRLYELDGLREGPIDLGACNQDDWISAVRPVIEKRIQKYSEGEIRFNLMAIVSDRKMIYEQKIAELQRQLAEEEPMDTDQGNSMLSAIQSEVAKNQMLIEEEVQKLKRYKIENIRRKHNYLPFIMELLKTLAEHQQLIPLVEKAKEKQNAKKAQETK
#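 System: Proteasome-associated human UCH37 deubiquitinase; Input: 0.15 nM proteasome in added enzyme buffer; Also added: Ub-AMC substrate from 1 µM stock; Incubation: 30 min compound-proteasome preincubation then 25 min substrate reaction, room temperature; Detection: fluorescence, ex 355 nm, em 460 nm; Read-out: % inhibition of Ub-AMC cleavage fluorescence; Benchmarks: no-proteasome and no-compound wells.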
# RanGTP-Imp inh – inhibitors of RanGTP-importin-beta interaction, primary screen, biochemical, FRET, CFP-Ran, YFP-importin-beta, homogeneous; 300,000 compounds, 1.1% hits; cell-free CFP-Ran/YFP-importin-beta FRET ratio; AID 2216; inhibition, % (no concentration beside the values);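 active = most replicates above 15%; inconclusive = exactly half above 15%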;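 also: 0% = DMSO wells and 100% = Ran loaded with GDP instead of GTP; wells of about 40 µL received 100 nL stock; the first replicate is given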
# * marks the source's active call; other numbers are inactive results; i = inactive; ? = inconclusive; . = not tested or not shown. An excerpt (hit frequency here may not be typical).
# Every second line gives: RanGTP-Imp inh	Ecoli growth	HNF4A DNA FP	MLL AF4-AF9 inh	UCH37 DUB inh	Vif A3G	FGF22 binding
> COc1ccc(CNC(=O)COC(=O)C(CCSC)N2C(=O)c3ccccc3C2=O)cc1 (stereo unspecified)
    .	0.71	-1.6	-8.3	2.4	.	i
> Cc1ccsc1CNC(=O)C1(C)CCCN1CC(C)C (stereo unspecified)
    .	.	1.7	-2.8	.	.	i
> CCCCN(C)CCCNC(=O)Cn1c(=O)sc2ccccc21
    -4.2	0.69	0.6	.	5.0	14%	.
> CC(Oc1ccc2c3c(c(=O)oc2c1)CCC3)C(=O)NCCCn1ccnc1 (stereo unspecified)
    0.1	0.7	-0.4	1.3	-6.1	.	i
> CC(C)c1ccc(C(=O)NC2=NCCS2)cc1
    -1.0	0.62	3.1	.	3.4	?	.
> COc1ccc(Cl)cc1NC(=O)CN(C)C(=O)c1cn2ccccc2n1
    .	0.68	1.1	-11	-0.8	0%	i
> CS(=O)(=O)Nc1ccc(C(=O)Nc2ccccc2-c2ccccc2)cc1
    0.4	0.64	0.2	7.1	1.2	.	i
> O=C(NC1CCCC1)C(c1cccnc1)N(Cc1ccccc1)C(=O)c1csnn1 (stereo unspecified)
    2.4	0.68	0.5	-1.9	3.0	.	i
> O=C(O)C1CCC(CNS(=O)(=O)c2ccc(Br)cc2)CC1 (stereo unspecified)
    4.4	0.68	1.6	0.6	1.3	-6%	i
> CCOc1ccc(C2=CSC3=NCCN23)cc1Cl
    4.4	0.66	-0.7	-0.1	1.5	.	i
> O=C1COc2ccc(C(=O)COC(=O)c3ccccc3[N+](=O)[O-])cc2N1
    -2.1	0.63	8.2	0.5	4.3	0%	i
> CC1CN(C(=O)CS(=O)(=O)Cc2ccccc2)CC(C)O1 (stereo unspecified)
    1.7	0.68	2.2	-3.6	-0.4	.	i
> CCOC(=O)c1c(S(=O)(=O)NCC(=O)Nc2ccccc2)c(C)n(C)c1C
    -0.6	0.68	-1.4	-5.9	4.9	.	i
> Cc1ccc(NC(=O)CN2C(=O)S/C(=C/c3ccncc3)C2=O)cc1
    -1.6	.	-0.8	-2.3	.	-2%	i
> Cc1ccc(N(C(C)C(=O)Nc2ccc3c(c2)OCO3)S(C)(=O)=O)cc1 (stereo unspecified)
    2.6	0.75	2.2	.	2.9	17%	.
> Cc1c(Cl)ccc2c(C(=O)Nc3cc(C(C)(C)C)on3)cc(-c3ccccn3)nc12
    -5.0	0.71	1.1	-1.6	2.8	-13%	i
> O=C(CCSCCC(=O)NN=Cc1ccc(F)cc1)NN=Cc1ccc(F)cc1
    .	0.63	0.0	-34	3.2	-3%	.
> CN(Cc1ccccc1)c1ccc(C(CC(N)=O)NC(=O)c2ccc(Br)cc2)cc1[N+](=O)[O-] (stereo unspecified)
    -1.5	0.67	3.2	6.2	1.9	.	i
> CCCCc1cc(=O)oc2cc(C)cc(OCC(=O)N3CCC(C(=O)O)(c4ccccc4)CC3)c12
    2.0	0.71	-5.3	-0.7	-119	.	i
> COc1ccc2[nH]c(C(=O)O)c(CCNC(C)=O)c2c1
    -1.6	0.74	0.0	.	-11	10%	.
> COc1cc(OC)cc(C(=O)NC(C(=O)O)C23CC4CC(CC(C4)C2)C3)c1 (stereo unspecified)
    3.0	0.66	3.9	0.0	1.8	-4%	i
> CC(=O)N1c2c(cc(Br)cc2S(=O)(=O)N2CCN(c3ccccc3F)CC2)CC1C (stereo unspecified)
    1.5	0.74	0.3	1.6	-1.6	.	i
> Cc1ccccc1/C=N/NC(=O)Cn1cnc([N+](=O)[O-])n1
    3.9	.	3.0	.	.	2%	.
> O=C(COc1ccccc1Cl)Nc1cnn(Cc2ccccc2)c1
    0.7	0.65	-0.1	.	4.9	2%	.
> CCc1ccc(NC(=O)CN(N=Nc2nonc2C)c2nonc2C)cc1
    -0.1	0.67	-1.5	1.3	-0.5	2%	i
> CCOC(=O)C1=C(O)C(=O)N(c2ccc(S(N)(=O)=O)cc2)C1c1ccccc1 (stereo unspecified)
    -1.5	0.75	0.3	.	-9.7	2%	.
> CN(CCc1ccccc1)C(=O)c1ccc(NC(=O)Cc2ccc(NC(=O)C3CCCN(C(=O)C4CCCCC4)C3)cc2)cc1 (stereo unspecified)
    .	0.7	0.1	-2.6	0.0	-2%	i
> Cc1cc(C(=O)O)oc(=O)c1
    3.5	0.63	-3.0	1.9	1.4	15%	i
> Cc1sc2ncn(C(C)C(=O)OC3CCCCC3)c(=O)c2c1C (stereo unspecified)
    0.4	0.68	4.6	.	5.8	-5%	.
> CS(=O)(=O)N(CC(=O)N1CCN(Cc2ccc3c(c2)OCO3)CC1)C1CCCCC1
    -0.5	0.74	4.0	1.5	2.5	1%	i

# Of the compounds above, 2 contain fluorine:
# Every second line gives: RanGTP-Imp inh	Ecoli growth	HNF4A DNA FP	MLL AF4-AF9 inh	UCH37 DUB inh	Vif A3G	FGF22 binding
> O=C(CCSCCC(=O)NN=Cc1ccc(F)cc1)NN=Cc1ccc(F)cc1
    .	0.63	0.0	-34	3.2	-3%	.
> CC(=O)N1c2c(cc(Br)cc2S(=O)(=O)N2CCN(c3ccccc3F)CC2)CC1C (stereo unspecified)
    1.5	0.74	0.3	1.6	-1.6	.	i

# The listing continues.
# Every second line gives: RanGTP-Imp inh	Ecoli growth	HNF4A DNA FP	MLL AF4-AF9 inh	UCH37 DUB inh	Vif A3G	FGF22 binding
> Cc1cc(C)nc(SSc2nc(C)cc(C)n2)n1
    -2.2	0.7	3.1	-6.4	8.5	-32%	i
> COc1cc(C(=O)OCc2ccc([N+](=O)[O-])cc2)cc(OC)c1OC
    2.4	0.68	-0.7	-0.2	2.6	0%	i
> CC(C)c1onc(C(=O)N2CCOCC2)c1[N+](=O)[O-]
    3.3	0.68	1.9	-4.3	0.4	.	i
> Cc1cc(CNC(=O)c2cc(-c3ccccc3)nc3ccccc23)nn1C
    0.0	0.68	-1.1	-1.5	-3.0	.	i
> COc1ccc(-c2nnc(-c3cc4c(ccc5ccccc54)oc3=O)o2)cc1
    -5.6	0.74	-0.9	-2.5	-26	-6%	.
> O=C(COc1cccc2c1CCNC2=O)Nc1ccc(F)cc1
    -3.8	0.69	-2.4	1.6	-2.2	-2%	i
> CC1CCCCN1C(C(=O)O)c1ccccc1 (stereo unspecified)
    0.1	0.69	-0.6	-3.4	2.6	.	i
> COc1ccc(CC(=O)NCc2ccccc2)cc1OC
    0.5	0.68	-1.7	2.7	-0.5	-2%	i
> CCN1CCCC1CN(Cc1cc2c(C)cc(C)cc2[nH]c1=O)C(=O)NC1CCCCC1 (stereo unspecified)
    4.3	0.71	2.6	.	-1.0	?	.
> Cc1ccc(S(=O)(=O)CCC(=O)Nc2ccc3nc(C)sc3c2)cc1
    -1.2	0.71	0.7	-5.4	3.1	.	i
> Cc1ccccc1N1C(=O)C(Cl)=C(N2CCOCC2)C1=O
    5.0	0.69	-0.2	0.8	2.5	.	i
> CCN(CC)CCNC(=O)C1CCN(S(=O)(=O)c2c(C)noc2/C=C/c2ccccc2F)CC1
    6.1	0.67	2.2	10	8.1	.	i
> CS(=O)(=O)N1CCN(c2nc3ccccc3s2)CC1
    -0.6	0.71	-4.6	.	-0.9	17%	.
> O=C(CSc1nc(=O)n2ccccc2n1)N1CCCc2ccccc21
    -1.8	0.69	-1.9	-4.2	4.8	-5%	i
> NC(=O)c1ccc[n+](CC(=O)OCCC23CC4CC(CC(C4)C2)C3)c1
    -1.8	0.69	2.9	.	1.8	1%	.
> Cc1cc(C)cc(NC(=O)CSc2nccn2Cc2ccco2)c1
    ?	0.68	2.7	8.2	3.0	0%	i
> C/C(=N/NC(=O)CNC(=O)C1COc2ccccc2O1)c1cccc(O)c1 (stereo unspecified)
    -0.2	.	1.7	0.0	.	1%	i
> Cc1cn(C2C=CC(CO)O2)c(=O)[nH]c1=O (stereo unspecified)
    -1.3	0.66	-1.0	.	6.7	-4%	.
> CC(=O)N1CCN(S(=O)(=O)c2cccc(C(=O)Nc3ccc(C)cn3)c2)CC1
    8.4	0.69	-2.9	-2.1	-0.5	-5%	i
> COc1cc(C2C(Oc3ccccc3C)C(=O)N2Cc2ccc(F)cc2)cc(OC)c1OC (stereo unspecified)
    ?	0.69	1.7	-1.5	1.1	?	i
> Cc1ccc(CONC(=O)/N=C/N(C)C)cc1
    1.2	.	3.8	.	.	-5%	.
> COc1cccc(NC(=O)Cn2c(=O)c3c(ncn3Cc3ccccc3)n(Cc3ccccc3)c2=O)c1
    1.5	0.77	-1.2	.	1.1	14%	.
> CC(=O)N1N=C(c2ccncc2)OC12CCCCCC2
    0.6	0.68	-2.1	1.8	-102	19%	i
> COc1cc(-c2cnc3c(NC=O)cc(-c4ccccc4)cn23)cc(OC)c1OC
    .	.	1.2	0.1	.	.	i
> COc1ccccc1NC(=O)COC(=O)c1ccc([N+](=O)[O-])s1
    -1.2	0.68	2.9	-7.6	72*	1%	i
> CCOC(=O)CSc1nc(C)[nH]c1[N+](=O)[O-]
    0.2	.	-3.4	0.2	.	16%	i
> O=C(C1CCCN1S(=O)(=O)c1cccc2cccnc12)N1CCN(c2ccccc2)CC1 (stereo unspecified)
    -3.6	0.74	-2.5	8.8	4.6	40µM*	i
> O=C1c2cc(S(=O)(=O)NCCCO)ccc2-c2ccc(S(=O)(=O)NCCCO)cc21
    -1.4	0.7	0.9	.	3.3	?	.
> O=C(NCCO)c1cc2c([nH]c3ccccc32)c(-c2ccc(F)cc2)n1
    2.4	0.71	0.6	-3.2	-62	2%	i
> COc1cccc(/C(C)=N/NS(=O)(=O)c2ccc(Cl)cc2)c1
    -0.7	.	3.8	-2.7	.	-1%	i
> O=C(Nc1nnc(CCc2ccccc2)s1)c1ccccc1
    -0.4	0.68	-1.0	0.1	-3.8	1%	i
> CCN(CC(=O)N1CCN(C)CC1)S(=O)(=O)c1ccc(Cl)cc1
    4.7	0.67	0.7	.	-0.1	-3%	.
> COc1ccc(CNC(=O)COC(=O)CC2CC3CCC2C3)cc1OC (stereo unspecified)
    ?	0.71	3.1	1.1	2.8	8%	i
> CC(NC(=O)C(C(=O)c1cccc([N+](=O)[O-])c1)n1cc(Cl)ccc1=O)c1ccccc1 (stereo unspecified)
    -2.4	0.73	0.1	.	4.1	.	.
> Cc1nn2c(=O)c(NC(=O)c3ccc(Cl)cc3)cnc2s1
    5.9	0.69	-2.9	-1.1	0.6	-8%	i
> CN(CC(=O)Nc1cccc2c1CCCC2)S(=O)(=O)c1ccc(Cl)cc1
    -0.6	0.71	-2.0	.	-0.8	5%	.
> CCOC(=O)Nc1ccc2c(c1)N(C(=O)CN(CC)CC)c1ccccc1CC2
    -0.8	0.63	-0.9	-1.1	2.5	.	i
> O=C1c2ccccc2NC(c2cccc(O)c2)N1NS(=O)(=O)c1ccccc1 (stereo unspecified)
    -1.8	0.64	2.8	-4.1	-184	-7%	i
> COc1ccc(C(c2nnnn2C(C)(C)C)N2CCN(C/C=C/c3ccccc3)CC2)cc1 (stereo unspecified)
    .	.	2.9	13	.	.	i
> COc1ccccc1NC(=S)N1CCCC1
    6.2	0.68	2.6	.	3.6	.	.
> O=C(N/N=C/c1ccco1)C1(O)c2ccccc2-c2ccccc21
    -0.4	.	-0.9	3.3	.	-3%	i

# Single entries from the list:
# MLL AF4-AF9 inh, O=C1c2ccccc2NC(c2cccc(O)c2)N1NS(=O)(=O)c1ccccc1 (stereo unspecified) : -4.1
# UCH37 DUB inh, CCN(CC(=O)N1CCN(C)CC1)S(=O)(=O)c1ccc(Cl)cc1 : -0.1
